Arbovirus inh: arbovirus infection inhibition; inhibition, % at 10 µM; arbovirus infection cell-based antiviral screen; 200,000 tested, 0.37% active;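 active = inhibition from about 30%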;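 note: bluetongue infection of BSR cells; cell survival read as ATP light after 72 h; 0% = infected wells without compound and 100% = uninfected wells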
YopH inh: YopH (Yersinia) phosphatase inhibition; inhibition, %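 (about 10 µM by stock and volumes)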; fluorescence Ex485/Em525; 140,000 tested, 0.16% active;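 active = inhibition of 50% or more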;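 note: controls were vehicle for no effect and minimum signal wells for full effect; inactives centre near -20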
Arbovirus inh repeat: second read-out of Arbovirus inh, no call of its own (marks repeat the call); inhibition, %; measured here: 10K subset replicate screen; many hits read low in the repeat;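 first of two repeat runs on a subset; 0% = infected and 100% = uninfected wells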
Numbers without * were called inactive; nt = no result given. These rows are one share of the data; count on the stated rates, not on these rows.

SMILES | Arbovirus inh | YopH inh | others
COC(=O)c1cc(OC)c(OC)cc1NC(=O)c1oc2ccccc2c1C | nt | -10.2
Clc1ccc2c(Cl)c(-c3nnc(-c4ccccc4)o3)sc2c1 | nt | -13.0
CCCOc1nc2c(c(=O)n(C)c(=O)n2C)n1CC | nt | -46.4
CCOc1nc(-c2ccc(OC)cc2)ccc1-c1noc(-c2cccnc2)n1 | nt | -27.9
CCOC(=O)c1c(NC(=O)CSc2nnc(-c3ccncc3)n2Cc2ccco2)sc(C(C)=O)c1C | nt | -20.9
C=CCn1c(=O)/c(=C2/SC(C)=C(C)N2CC)s/c1=C1/C(=O)N(C)C(=S)N1c1ccccc1 | nt | -68.4
Cn1c(=O)c2c(nc(SCC(=O)N3CCc4ccccc43)n2Cc2ccc(F)cc2)n(C)c1=O | nt | -17.5
O=C1c2cccc3c(N4CCCCC4)ccc(c23)C(=O)N1c1ccc(Cl)cn1 | nt | -24.1
CCCCCCc1cc2cc(-c3nnc(-c4cccc(OC)c4)o3)c(=O)oc2cc1O | nt | -24.1
CCCCCCc1nc2ccccc2c(=O)n1NC(=O)c1c(O)c2cccc3c2n(c1=O)CC3 | nt | 31.6
CC1(C)CC(=O)C=C(NC2CCS(=O)(=O)C2)C1 (stereo not given) | nt | -21.3
Cc1ccc(C)c(N(CC(=O)NC2CCCCC2)C(=O)CCC(=O)Nc2ccccn2)c1 | nt | -19.0

Reprinted from the part before: seven compounds, then new ones.
SMILES | Arbovirus inh | YopH inh | others
C=CCn1c(=O)/c(=C2/SC(C)=C(C)N2CC)s/c1=C1/C(=O)N(C)C(=S)N1c1ccccc1 | nt | -68.4
Cn1c(=O)c2c(nc(SCC(=O)N3CCc4ccccc43)n2Cc2ccc(F)cc2)n(C)c1=O | nt | -17.5
O=C1c2cccc3c(N4CCCCC4)ccc(c23)C(=O)N1c1ccc(Cl)cn1 | nt | -24.1
CCCCCCc1cc2cc(-c3nnc(-c4cccc(OC)c4)o3)c(=O)oc2cc1O | nt | -24.1
CCCCCCc1nc2ccccc2c(=O)n1NC(=O)c1c(O)c2cccc3c2n(c1=O)CC3 | nt | 31.6
CC1(C)CC(=O)C=C(NC2CCS(=O)(=O)C2)C1 (stereo not given) | nt | -21.3
Cc1ccc(C)c(N(CC(=O)NC2CCCCC2)C(=O)CCC(=O)Nc2ccccn2)c1 | nt | -19.0
NC(=O)CSc1nnc(COc2ccccc2)n1C1CCCCC1 | nt | -34.1
Cn1c(=O)c2c(nc(NCCCN3CCOCC3)n2Cc2ccc(Cl)c(Cl)c2)n(C)c1=O | nt | -0.5
CCOc1nnnc2c1sc1nc(N3CCOCC3)c3c(c12)CC(C)(C)OC3 | nt | -3.2
COc1ccccc1C1/C(=C(\O)c2c(C)nc3c(C)cccn23)C(=O)C(=O)N1CCCN(C)C (stereo not given) | nt | -106.8
CN(C(=O)c1ccc(C(=O)N(C)C2CCCCC2)cc1)C1CCCCC1 | nt | -1.9
CCC(=O)Oc1c(-c2ccccc2)c2nc3ccccc3nc2c2ccccc12 | nt | 40.0
c1ccc(-c2nnc(-c3cccc(-c4nnc(-c5ccccc5)o4)c3)o2)cc1 | nt | 34.2
CSc1nc2sc3c(c2c2nnnn12)CC(C)(C)OC3 | nt | -12.2
O=c1[nH]c(CN2CCCCC2)nc2c1C1(CCCC1)Cc1ccccc1-2 | nt | -15.3
O=C(CSc1nnc(-c2ccc(Cl)s2)o1)N1CCOCC1 | nt | -42.2
N#Cc1c(SCC(N)=O)nc2c(c1-c1ccc(OCc3ccccc3)cc1)CCCC2 | nt | -16.2
CCn1ncc(/C=C2/CC3C4CC=C5CC(O)CCC5(C)C4CCC3(C)C2=O)c1C (stereo not given) | nt | -47.8

For convenience, some entries already given.
SMILES | Arbovirus inh | YopH inh | others
CCC(=O)Oc1c(-c2ccccc2)c2nc3ccccc3nc2c2ccccc12 | nt | 40.0
c1ccc(-c2nnc(-c3cccc(-c4nnc(-c5ccccc5)o4)c3)o2)cc1 | nt | 34.2

Next section
SMILES | Arbovirus inh | YopH inh | others
Cn1c(=O)c2c(nc(N3CCCCC3)n2CCSc2nc3ccccc3o2)n(C)c1=O | nt | -11.7
CCC1(C)Cc2c(sc3c2c(=O)n(C)c2nnc(SCC(=O)c4ccc(Cl)cc4)n32)CO1 (stereo not given) | nt | 5.8
Cc1nc2ccccc2c(=O)n1NC(=O)Cc1ccccc1 | nt | -19.7
COc1cccc(C2CC(c3ccccc3Cl)Nc3ncnn32)c1 (stereo not given) | nt | -15.9
COc1cccc(CC(NC(C)=O)C(=O)NC2CCN(c3c4c(nc5ncnn35)CCC4)CC2)c1 (stereo not given) | nt | -14.2
Cc1ccc(/C(O)=C2\C(=O)C(=O)N(CCCN(C)C)C2c2ccccn2)cc1 (stereo not given) | nt | -16.4
CNC(=O)CSc1nnc(-c2cc3c(C)nn(-c4ccccc4)c3s2)n1C | nt | 2.8
CCCN1C2=C(C(=O)CCC2)C(c2ccc(F)cc2)C2=C1c1ccccc1C2=O (stereo not given) | nt | -21.7
CC(C)N(C(=O)c1ccc2nc3c4ccccc4c4ccccc4c3nc2c1)C(C)C | nt | -9.1
O=c1c2cnn(-c3ccccc3)c2ncn1/N=C/c1ccncc1 | nt | 0.6
O=C(CSc1nc(N2CCCCC2)nc(N2CCCCC2)n1)NC1CCCCC1 | nt | -27.1
CN(C)CCCN1C(=O)C(=O)/C(=C(/O)c2ccc3c(c2)OCO3)C1c1ccccn1 (stereo not given) | nt | -49.9

Part of the list above in order of length of the SMILES, ascending:
SMILES | Arbovirus inh | YopH inh | others
Cc1nc2ccccc2c(=O)n1NC(=O)Cc1ccccc1 | nt | -19.7
O=c1c2cnn(-c3ccccc3)c2ncn1/N=C/c1ccncc1 | nt | 0.6
O=C(CSc1nc(N2CCCCC2)nc(N2CCCCC2)n1)NC1CCCCC1 | nt | -27.1
CNC(=O)CSc1nnc(-c2cc3c(C)nn(-c4ccccc4)c3s2)n1C | nt | 2.8
CC(C)N(C(=O)c1ccc2nc3c4ccccc4c4ccccc4c3nc2c1)C(C)C | nt | -9.1
CCCN1C2=C(C(=O)CCC2)C(c2ccc(F)cc2)C2=C1c1ccccc1C2=O (stereo not given) | nt | -21.7
COc1cccc(CC(NC(C)=O)C(=O)NC2CCN(c3c4c(nc5ncnn35)CCC4)CC2)c1 (stereo not given) | nt | -14.2

(continued)
SMILES | Arbovirus inh | YopH inh | others
NC(=O)CSc1nnc(CCc2nc3ccccc3[nH]2)n1-c1ccccc1 | nt | 39.0
c1ccc(-c2nnc(Cn3c4ccccc4c4nc5ccccc5nc43)o2)cc1 | nt | -22.6
COc1ccc(CC(=O)NCc2nnc(SCC(=O)N3CCN(c4ccccc4)CC3)n2C)cc1 | nt | 34.9
C=C(C)C1Cc2c(C)nn(-c3cc(C)c4ccccc4n3)c2C1 (stereo not given) | nt | 8.5
CCn1c(=O)c(C(=O)Nc2cccnc2)c(O)c2ccccc21 | nt | -19.4
Cc1nc(Nc2nc(=O)c3ccccc3n2C)nc2c(C)cccc12 | nt | -13.9
O=C(Nc1nc2cc3c(cc2s1)OCCO3)c1cccc(S(=O)(=O)N2CCOCC2)c1 | nt | -36.3
CCOC(=O)c1sc(N2C(=O)C(O)=C(C(=O)c3ccco3)C2c2ccccc2)nc1C (stereo not given) | nt | -47.6
COC(=O)c1ccc(C(=O)OC)c(NC(=O)c2cc3ccccc3o2)c1 | nt | -34.3
CCOC(=O)c1ccc2c(c1)N(CC)/C(=C\C=C1/SC(=S)N(CC)C1=O)N2CC | nt | -5.4
Brc1ccc(C2=Nn3c(nnc3-c3ccncc3)SC2)cc1 | nt | -9.9
O=C(O)C1CCC(CNCc2cccnc2)CC1 (stereo not given) | nt | -5.4
O=c1[nH]c(SCc2cc(=O)n3ccccc3n2)nc2c1CCC2 | nt | -23.9
Cc1cc(C)n(-c2nc3c(c(=O)n(C)c(=O)n3C)n2CC(O)COc2ccccc2C)n1 (stereo not given) | nt | -20.8
Cc1ccc(C(=O)N2CCN(C(=O)c3ccc(C)c(C)c3)C(C)C2)cc1C (stereo not given) | nt | -5.5
CCCn1c(=O)c2ccccc2n2c(SCc3cc(=O)n4ccsc4n3)nnc12 | nt | -128.4
CCCn1c(SCC(=O)Nc2ccccc2C(=O)OCC)nc2c1c(=O)n(C)c(=O)n2C | nt | 17.1
CCCCS(=O)(=O)NC1=NCN(C2CCN(Cc3ccccc3)CC2)CN1 | nt | 24.2
Cc1nnc2n(CCc3ccccc3)c(=O)c3c4c(sc3n12)CCCC4 | nt | -22.4
CNc1nc(OCC(F)(F)F)nc(N2CCN(C34CC5CC(CC(C5)C3)C4)CC2)n1 | nt | -17.2
COC(=O)c1ccc(Cn2nnc3c(sc4nc(N5CCOCC5)c5c(c43)CCCC5)c2=O)o1 | nt | -20.8
CCn1c(SCC(=O)N2c3ccccc3Sc3ccc(Cl)cc32)nc2c1c(=O)n(C)c(=O)n2C | nt | 35.6
O=C1c2ccccc2C(=O)N1CCC(=O)N1CCc2ccccc21 | nt | -15.4
Cc1c(/C=C2/CC3C4CC=C5CC(O)CCC5(C)C4CCC3(C)C2=O)cnn1C (stereo not given) | nt | -49.2
CCOc1ccc(-n2c3nc4ccccc4nc3c3c(=O)n(Cc4ccco4)cnc32)cc1 | nt | -25.8
O=c1[nH]c(N2CCc3ccccc3C2)nc2c1CCCC2 | nt | -2.2
Cc1cccn2c(=O)c3cc(C#N)c(=N)n(CC4CCCO4)c3nc12 (stereo not given) | nt | -2.5
CCOc1ccc2nc(NC3=NCN(CC4CCCO4)CN3)nc(C)c2c1 (stereo not given) | nt | -39.7
COc1cccc2cc(C(=O)C3=C(O)C(=O)N(CCCN4CCOCC4)C3c3ccncc3)oc12 (stereo not given) | nt | -37.7
N#Cc1c(SCc2nc3ccccc3[nH]2)nc2c(c1C(F)(F)F)CCC2 | nt | -9.7
CN(C)CCNC(CC(=O)Nc1ccc(Cl)c(Cl)c1)C(=O)O (stereo not given) | nt | -13.6
O=C(O)C1CSC(c2ccc(O)c([N+](=O)[O-])c2)N1 (stereo not given) | 6.8 | nt
Cc1cccc(N2CCN(C(=O)c3cc4c(C)nc5ccccc5c4o3)CC2)c1C | 11.7 | nt | Arbovirus inh repeat=4.2
O=P(O)(CN1CCCCC1)C1CCCCC1O (stereo not given) | 7.3 | nt | Arbovirus inh repeat=2.8
CC1CCN(Cc2nc3c(c(=O)n(C)c(=O)n3C)n2Cc2cccc3ccccc23)CC1 | -3.2 | nt | Arbovirus inh repeat=0.5
CCOc1ccc(N2CCCCn3c2nc2c3c(=O)[nH]c(=O)n2C)cc1 | 0.7 | nt | Arbovirus inh repeat=6.0
CCN1CCN(C(=O)C2CCN(Cc3nc(-c4ccc(Cl)cc4)oc3C)CC2)CC1 | 3.9 | nt | Arbovirus inh repeat=-0.1
COc1ccc(Cl)cc1Nc1nc(N2CCCC2)nc(N2CCCC2)n1 | -1.2 | nt | Arbovirus inh repeat=-1.1
O=C(NC1CCCc2ccccc21)C1CCN(c2c(N3CCCC3)c(=O)c2=O)CC1 (stereo not given) | 0.8 | nt | Arbovirus inh repeat=-1.8
COc1ccc(-n2c(SCC(=O)N3CCCC3)nc3c([nH]c4ccccc43)c2=O)cc1 | 7.5 | nt | Arbovirus inh repeat=0.9
COc1ccc(-c2cn3c(C)c(C(=O)N4CCN(c5ccccc5)CC4)sc3n2)cc1 | 6.9 | nt | Arbovirus inh repeat=2.9
CC1CCCN(Cc2nc3c(c(=O)n(C)c(=O)n3C)n2Cc2cccc3ccccc23)C1 (stereo not given) | 9.1 | nt | Arbovirus inh repeat=2.9
COC(=O)Cn1c(CN2CCN(c3ccccc3F)CC2)nc2c1c(=O)n(C)c(=O)n2C | -1.2 | nt | Arbovirus inh repeat=1.3
O=C1C(=O)N(CCCn2ccnc2)C(c2cccnc2)/C1=C(/O)c1ccc(Cl)cc1 (stereo not given) | 5.5 | nt | Arbovirus inh repeat=5.6
COc1ccc(NC(=O)c2cnc3ccccn3c2=O)cc1OC | 1.6 | nt | Arbovirus inh repeat=0.7
CCOc1ccc(-n2c(SCC(=O)Nc3ccc4c(c3)OCO4)nc3c(c2=O)SCC3)cc1 | -5.8 | nt | Arbovirus inh repeat=-1.8
CCC(=O)N1CCc2cc(Br)cc(S(=O)(=O)NCCN3CCOCC3)c21 | 0.4 | nt | Arbovirus inh repeat=-1.1
CN1CCN(S(=O)(=O)c2ccc(-c3ccc(S(=O)(=O)N4CCN(C)CC4)cc3)cc2)CC1 | 1.1 | nt
Cc1cc(C)c2c3c(c(-c4ccccc4)n2n1)c(=O)n(C)c(=O)n3C | 3.1 | nt | Arbovirus inh repeat=-2.1
CCOC(=O)c1ccc(N2Cc3cc(C)c(C)cc3C2)cc1O | 8.6 | nt | Arbovirus inh repeat=-0.5
COc1ccc(C)c2sc(=NC(=O)c3ccc(C#N)cc3)n(C)c12 | 3.7 | nt | Arbovirus inh repeat=-1.4

Screening results: PubChem, several laboratories
